Cruzain inh Det – qHTS Assay for Promiscuous and Specific Inhibitors of Cruzain (with detergent); purified cruzain, Z-FR-AMC fluorescence, 0.01% Triton; Potency, µM, for the others: max response, negative = inhibition, usual class: inhibitors; 200,000 tested, 0.43% active; AID 1478, 2009; active = well fitted curve in the direction sought with a large enough effect; inconclusive = small, poorly fitted or top-dose-only effect, or another doubt; inactive = no such curve, though single readings can be large; an effect the other way counts as inactive or inconclusive;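 also: plate controls were neutral wells for no effect and buffer without enzyme for full effect; nearly all actives have a fitted effect of over 40% in size; top concentration of the series not given in the record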
Target sequence (P25779 123-467 limits assumed): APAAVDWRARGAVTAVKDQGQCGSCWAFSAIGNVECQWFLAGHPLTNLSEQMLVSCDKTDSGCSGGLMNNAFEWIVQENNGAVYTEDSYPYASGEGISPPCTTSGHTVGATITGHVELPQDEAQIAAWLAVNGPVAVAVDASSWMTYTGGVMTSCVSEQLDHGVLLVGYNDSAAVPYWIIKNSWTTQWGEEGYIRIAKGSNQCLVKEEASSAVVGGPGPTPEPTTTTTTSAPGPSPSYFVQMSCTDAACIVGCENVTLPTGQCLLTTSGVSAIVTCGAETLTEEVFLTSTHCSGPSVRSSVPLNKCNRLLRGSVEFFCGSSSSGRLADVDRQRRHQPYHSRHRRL
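Compounds were screened in titration against cruzain (1.5 nM) with 0.01% Triton X-100 to counter colloidal aggregation. Activity was the AMC fluorescence increase over 60 s after adding 2 uM Z-FR-AMC at pH 5.5.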
MARV entry inh – qHTS for inhibitors of binding or entry into cells for Marburg Virus | Potency, µM (doses to about 37.8 µM), for inactives: top-dose activity change, negative = inhibition, usual class: inhibitors | 300,000 tested, 1.8% active | AID 540276, 2011 | Marburg virus pseudotyped entry inhibition, cell reporter; control for the full effect not named in the record; about a third of the inactives were read at about 46 µM; active = well fitted inhibition curve with a large enough effect; inconclusive = small, poorly fitted or top-dose-only effect, or effect the other way; inactive = flat fitted curve, though single readings scatter; tested in HEK293 cells; about a fifth of its hits are not listed in these tables; also: % is scaled to controls: 0 for no effect and ±100 for the full control effect; luciferase read-out
NS1 inh – qHTS Assay for Inhibitors of Influenza NS1 Protein Function. S. cerevisiae slowed by influenza A NS1, growth recovery by OD600. Potency, µM (titrated, usually from 46.1 µM), inactives show at the highest dose activity, positive = more growth. 270,000 tested, 0.4% active. AID 2326, 2010; also: actives are rising curves; nearly all actives have a fitted effect of over 50% in size
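A cell-based growth assay was used: compounds that relieve NS1-induced slow growth of budding yeast raise OD600. Assay medium was yeast nitrogen base with ammonium sulphate and -URA supplement, pH 6.0, with 2% galactose.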
StopGo reporter – High Throughput Screening for Foot and Mouth Disease Virus Antivirals. human cells with a luciferase reporter of 2A StopGo recoding; control for the full effect not named in the record. Potency, µM (highest dose often 57.9 µM), for the others: at the highest dose signal change, negative = less light. 410,000 tested, 1.2% active. AID 1159524, 2015; active = well fitted falling curve with a large enough effect; inconclusive = small, poorly fitted or top-dose-only effect; inactive = no such curve, though single readings can be large or run the other way; tested in HEK293T cells; also: % is scaled to controls: 0 for no effect and ±100 for the full control effect; nearly all actives have a fitted effect of over 45% in size; luciferase light after 4 h
SARS PLP yeast – qHTS of Yeast-based Assay for SARS-CoV PLP; S. cerevisiae expressing SARS-CoV PLpro, growth rescue; control for the full effect not named in the record; Potency, µM (highest dose often 32.9 µM), for inactives: at the highest dose activity, positive = growth rescue; 330,000 tested, 0.19% active; also: 0% is about no effect; nearly all actives have a fitted effect of over 55% in size; growth read by luminescence after 48 h
Cruzain noTriton – qHTS Assay for Promiscuous and Specific Inhibitors of Cruzain (without detergent); Cruzipain (Trypanosoma cruzi), P25779; purified cruzain, Z-FR-AMC fluorescence, no detergent; Potency, µM, for the others: max response, negative = inhibition, usual class: inhibitors; 200,000 tested, 2.3% active; active = well fitted curve in the direction sought with a large enough effect; inconclusive = small, poorly fitted or top-dose-only effect, or another doubt; inactive = no such curve, though single readings can be large; an effect the other way counts as inactive or inconclusive;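 also: plate controls were enzyme without inhibitor for no effect and buffer without enzyme for full effect; nearly all actives have a fitted effect of over 40% in size; top concentration of the series not given in the record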
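Detergent-free condition (0.00005% Triton X-100) in acetate buffer pH 5.5 with DTT. 1.5 nM enzyme and compound were pre-mixed 15 min, then 2 uM Z-FR-AMC substrate added; reaction progress from fluorescence change between first and third reads (60 s).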
RE007 growth inh – qHTS Assay for Inhibitors of the HIV-1 protein Vpr; S. pombe RE007 Vpr strain, BacTiter-Glo ATP luminescence, 24 h; control for the full effect not named in the record; 360,000 tested, 0.21% active; Potency, µM (top dose mostly 92.2 µM), for inactives: top-dose activity change, negative = less growth; active = well fitted falling curve with a large enough effect; inconclusive = small, poorly fitted or top-dose-only effect; inactive = no such curve, though single readings can be large or run the other way;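 also: % is scaled to controls: 0 for no effect and ±100 for the full control effect; nearly all actives have a fitted effect of over 50% in size; the assay follows cell death caused by Vpr and the record does not say whether a fall means rescue or toxicity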
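Fission yeast strain RE007, carrying one chromosomally integrated HIV-1 vpr copy, was seeded at OD 0.01 in PMG+AL medium with 23 nL pinned compound. After 24 h at 30 °C and 99% humidity, viability was read by BacTiter-Glo luminescence.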
LASV entry inh – qHTS for Inhibitors of binding or entry into cells for Lassa Virus; Lassa virus pseudotype entry inhibition, cell reporter; control for the full effect not named in the record; Potency, µM (top dose mostly 37.9 µM), inactives show at the top dose activity change, negative = inhibition, usual class: inhibitors; 300,000 tested, 1.2% active; AID 540256, 2011; active means well fitted inhibition curve with a large enough effect; inconclusive means small, poorly fitted or top-dose-only effect, or effect the other way; inactive means flat fitted curve, though single readings scatter; tested in HEK293 cells; also: % is scaled to controls: 0 for no effect and ±100 for the full control effect; nearly all actives have a fitted effect of over 50% in size; luciferase read-out
Numbers without * were called inactive; ? = inconclusive; nt = no result given; & = joins results of further samples; [ ] = dose if it differs, or a comment. Unless noted, calls follow the shape of the dose curve; as a rule, active means well fitted rising curve with a large enough effect; inconclusive means small, poorly fitted or top-dose-only effect; inactive means no such curve, though single readings can be large or run the other way. Potency is read from the fitted curve at half-maximal effect.

SMILES	Cruzain inh Det	MARV entry inh	NS1 inh	StopGo reporter	SARS PLP yeast	Cruzain noTriton	RE007 growth inh	LASV entry inh
COc1ccc2oc(CS(=O)c3ccccc3)c(C(=O)O)c2c1 (configuration not stated)	nt	nt	?	34%[activator]	2%	nt	1%	nt
CCN(CC)CCNc1ncnc2c1[nH]c1ccc(OC)cc12	4.2%	-3%	-1%	nt	-2%	?	nt	nt
O=C(O)c1ccc(C(=O)O)c(C(=O)c2ccc(NC(=O)c3ccccc3)cc2)c1	nt	nt	2%	-16%	0%	nt	3%	nt
Cc1ccc(/C=C2\Oc3cc(OC(=O)N4CCOCC4)ccc3C2=O)cc1	-4.9%	3%	5%	14%	25%	?	1%	6%
O=C(O)c1ccc2c(=O)n(-c3ccccc3)c(=S)[nH]c2c1	nt	4%[46.1 µM]	-3%	3%	0%	nt	19%	0%
COc1ccc(S(=O)(=O)N2CCOCC2)cc1NC(=O)/C=C/c1ccccc1	nt	?	nt	-8%	-5%	nt	6%	?
c1ccc(CSCc2ccccc2)cc1	-0.3%	nt	nt	-2%	3%	-7%	-6%	nt
CC(C)(C)C1=CC(=Nc2ccccc2N)C=C(C(C)(C)C)C1=O	1.9%	?	14%	?	2%	-2%	-4%	-23%
Cc1ccc2nsnc2c1S(=O)(=O)N(Cc1ccco1)Cc1cc2ccc(C)c(C)c2[nH]c1=O	-3.0%	1.6µM*	9%	-21%	-4%	2%	13%	?
Cc1ccc(S(=O)(=O)C(C#N)c2nc3ccccc3nc2N2CCN(C)CC2)cc1 (configuration not stated)	-1.2%	9%	-17%	16%	?	5%	2%	-22%
CCc1cc(C(=O)Nc2cc(S(=O)(=O)N3CCOCC3)ccc2N2CCN(CC)CC2)sc1C	nt	-29%	nt	-20%	nt	nt	-12%	?
CCOc1ccc2nc(N3CCCC(C(=O)Nc4ccc(Br)c(C)c4)C3)sc2c1 (configuration not stated)	-1.1%	-2%[46.1 µM]	nt	4%	nt	-9%	nt	nt
O=P(c1ccccc1)(c1ccccc1)N1CCCCC1	-9.4%	-15%	-2%	-19%	-4%	-3%	-1%	?
CC(=O)Nc1cccc(OC(=O)N2CCOCC2)c1	1.9%	0%	0%	-15%	1%	3%	-5%	15%
CCN(CC(=O)Nc1ccc(OC)cc1)C(=O)c1ccc([N+](=O)[O-])cc1	nt	0%[46.1 µM]	nt	-4%	1%	nt	-1%	1%
Cc1ccc(S(=O)(=O)N(C)CC(=O)N2CCC(C(N)=O)CC2)cc1	nt	-13%[46.1 µM]	1%	-15%	-5%	nt	-14%	0%
COc1ccc(C2CC(c3ccccc3)=NN2S(=O)(=O)c2ccc(C)cc2)c(OC)c1 (configuration not stated)	2.9%	?	?	60%[activator]	-9%	?	-3%	?
CCCCSc1nnc(CCNC(=O)OC(C)(C)C)o1	nt	6%[46.1 µM]	3%	8%	4%	nt	-5%	9%
CC(=O)CC(C)(C)Nc1nc2ccc([N+](=O)[O-])cc2o1	nt	12%[46.1 µM]	1%	-11%	2%	nt	3%	12%[46.1 µM]
Cc1ccc(C(=O)Oc2coc(CSc3nnc(NC(=O)c4cccs4)s3)cc2=O)cc1	-1.2%	?	6%	6%	1%	25µM*	-1%	13%
CCOc1ccc(-c2nonc2NC(=O)c2oc3ccc(Cl)cc3c2C)cc1	2.0%	-14%[46.1 µM]	nt	-6%	nt	-6%	nt	3%[46.1 µM]
Cc1ccc(OCc2nc(-c3ccc(C(=O)NCCc4ccc(S(N)(=O)=O)cc4)cc3)oc2C)cc1	1.1%	-11%[46.1 µM]	nt	-22%	nt	-9%	nt	nt
O=S(=O)(c1ccccc1)c1nc(-c2ccco2)oc1NCc1ccccc1	22µM*	-7%	3%	19%	7%	25µM*	-15%	-13%
COc1ccccc1/C=N/n1cnnc1	-1.4%	6%	-8%	-19%	-3%	-3%	nt	nt
CN(C)c1ccc(CNc2ccc3c(c2)ncn3C)cc1	-1.9%	?	0%	-2%	1%	-4%	7%	-28%
CCOc1ccc(NC(=O)CSc2nc(N3CCOCC3)nc(N3CCOCC3)n2)cc1	nt	-12%	-7%	-7%	0%	nt	-3%	?
O=C(CSc1nccn1Cc1ccccc1)Nc1ccc2c(c1)OCO2	-0.6%	nt	nt	63%[activator]	nt	7%	nt	1%[46.1 µM]
COc1ccc(S(=O)(=O)N(Cc2cc3cc(C)ccc3[nH]c2=O)CC2CCCO2)cc1 (configuration not stated)	2.8%	-10%	1%	-22%	-6%	?	18%	?
CC1(C)NC(=O)N(CC(=O)OCC(=O)c2ccc(Cl)s2)C1=O	nt	4%[46.1 µM]	nt	-4%	-19%	nt	-6%	?
COc1ccc(OC)c(Nc2nc(NCc3ccco3)c3ccccc3n2)c1	nt	13µM*	-43%	?	-4%	nt	-27%	-9%[46.1 µM]
Cc1ccc(Cn2nnc3c(=O)[nH]c(C(=O)NCc4ccco4)nc32)cc1	-2.1%	16%	-6%	-10%	7%	-8%	-3%	2%
O=S(=O)(c1ccccc1)N(Cc1nc(-c2ccccc2)no1)C1CCCCC1	-5.4%	?	-44%	-20%	1%	-3%	-8%	?
Cc1ccccc1Oc1cccc(C(=O)/C(C#N)=C/N(C)C)c1	-7.8%	-5%	-12%	39%[activator]	5%	-1%	10%	9%
COc1ccc(-n2cc(-c3ccccc3)nc2SCC(=O)Nc2ccccc2)cc1Cl	-2.1%	nt	nt	-2%	nt	?	nt	?
O=c1oc2ccccc2c2c1SC(C(F)(F)F)C2 (configuration not stated)	0.9%	2%	-14%	11%	15%	-7%	-21%	?
CN(CC(=O)NCCc1ccc(F)cc1)Cc1ccc(Br)cc1	nt	-24%[46.1 µM]	-7%	-20%	1%	nt	-9%	19%
COc1ccccc1CNC(=O)c1ccc(C)c(-n2cnc3cccnc32)c1	-2.0%	nt	nt	-1%	nt	-5%	nt	5%[46.1 µM]
COc1ccc(-c2nnc(C3CCN(S(=O)(=O)c4ccc(C)c(C)c4)CC3)o2)cc1	-2.7%	9%[46.1 µM]	nt	-28%	nt	-11%	nt	-19%[46.1 µM]
Cc1cccc(Cn2cccc2/C=C2/C(=N)N3C=CSC3=NC2=O)c1	-0.6%	-28%	6%	-17%	8%	-28%	0%	-20%
N=c1ccn(CC(=O)NC(N)=O)c2ccccc12	-8.5%	9%	3%	-19%	3%	-4%	6%	10%
C=C(C)C(=O)Nc1cccc(C2=NOC3(C2)C[C@@H](C(N)=O)N(C(=O)c2cc([N+](=O)[O-])cc([N+](=O)[O-])c2)C3)c1 (some centres not stated)	nt	nt	-9%	-21%	2%	nt	4%	nt
COc1cccc(N2CC(O)=C(c3ccccc3)C2=N)c1	1.1%	4%	7.1µM*	11%	18%	4%	-22%	3%
CCOC(=O)N1CCN(C(=O)CS(=O)(=O)c2cn(Cc3ccc(F)cc3)c3ccccc23)CC1	nt	nt	3%	-30%	-1%	nt	-3%	nt
Cc1cccc(NC(=O)COC(=O)COc2ccc3c(c2)CCC3)c1	nt	?	nt	-24%	4%	nt	-5%	6%
O=C1Cc2cc(NS(=O)(=O)c3cc(F)ccc3F)cc3c2N1CCC3	nt	-1%[46.1 µM]	nt	11%	3%	nt	-6%	-19%
CCNC(=S)N1CCC(NC(=O)c2ccco2)CC1	nt	?	3%	2%	-1%	nt	-1%	18%
COc1cc(/C=N/NC(=O)CN2CC(c3ccccc3)CC2=O)ccc1OC(=O)N(C)C (configuration not stated)	-0.4%	-26%	-19%	2%	1%	?	-6%	4%
Cc1cccc(CCNC(=O)CCNC(=O)Cn2ccc3ccccc3c2=O)c1	-0.5%	7%	-6%	7%	-10%	-12%	-17%	-20%
COC(=O)c1[nH]c2ccc(Cl)cc2c1NC(=O)C1CC1	1.2%	?	-6%	-2%	2%	-1%	-8%	18%
CC1=C(C(=O)OCCOC(C)C)C(c2cc3c(cc2Br)OCO3)CC(=O)N1 (configuration not stated)	3.4%	?	-5%	-6%	5%	10%	5%	1%
O=C(Nc1ccc(S(=O)(=O)Nc2nccs2)cc1)c1ccc(S(=O)(=O)N2CCOCC2)cc1	-5.4%	30%	-4%	-17%	6%	-12%	-3%	14%
CSc1nncc(/C(C)=N/O)n1	1.5%	29%	-10%	0%	13%	-4%	-24%	-2%
COC(=O)c1ccc(NC(=O)Cn2nc(C)c3ccccc3c2=O)cc1	nt	nt	-7%	-4%	2%	nt	-11%	nt
CCOc1ccc(C2CC(=O)n3nc(-c4ccc(C)cc4)nc3S2)cc1OC (configuration not stated)	-2.7%	19%[46.1 µM]	nt	-4%	nt	7%	nt	-1%[46.1 µM]
CCCCNC(=O)Nc1ccc(Br)cn1	1.3%	1%	-82%	31%[activator]	-11%	-8%	-12%	9%
Cc1ccc(C)c(NC(=S)N=Nc2c(O)n(C)c3ccc(S(=O)(=O)N4CCOCC4)cc23)c1	-5.9%	?	27%	-17%	-3%	5%	0%	?
COCCN1C(=O)N(c2ccccc2)C(=O)C1CC(=O)Nc1cc(OC)cc(OC)c1 (configuration not stated)	nt	nt	6%	-5%	4%	nt	3%	nt
CC(=O)c1ccc(S(=O)(=O)N2CCN(C(=O)c3ccc(N)c([N+](=O)[O-])c3)CC2)cc1	nt	-4%	nt	6%	-7%	nt	0%	-23%
Cc1nn(Cc2ccccc2)c(C)c1C(=O)NCc1ccccc1	nt	4%[46.1 µM]	nt	1%	1%	nt	?	-11%
C=CCn1c(CCc2ccc(OC(C)C)cc2)n[nH]c1=S	nt	nt	2%	41%[activator]	-1%	nt	2%	nt

(continued)
SMILES	Cruzain inh Det	MARV entry inh	NS1 inh	StopGo reporter	SARS PLP yeast	Cruzain noTriton	RE007 growth inh	LASV entry inh
CCC(=O)c1ccc(OCC(=O)OCC(=O)NCC2CCCCC2)cc1	nt	2%	nt	-4%	-7%	nt	15%	-12%
Cc1ccc2c(CN3CCCCC3CCO)cc(=O)oc2c1 (configuration not stated)	nt	nt	5%	1%	-4%	nt	18%	nt
Nc1c(C(=O)NCc2ccc3c(c2)OCO3)nnn1CC(=O)Nc1ccc(Br)cc1	-0.8%	nt	4%	-11%&17%	5%	?	3%	?
COc1ccc(CC(=O)NCC(=O)N=Nc2c(O)[nH]c3ccccc23)cc1	nt	nt	-5%	-7%	-6%	nt	8%	nt
COCCNC(=O)C(c1ccc(F)cc1)N(C(=O)CCC(=O)Nc1ccccn1)C1CCCCC1 (configuration not stated)	nt	1%[46.1 µM]	-2%	9%	-1%	nt	2%	19%

High-throughput results (PubChem)
